Source: PubChem
Sa ugtP lethal: kills S. aureus RN4220 lacking UgtP | S. aureus RN4220 ugtP deletion, OD600 growth, 16 h; some inactives read as strong as hits | growth inhibition, % (concentration not given with the values) | hit rate 0.54% among 330,000 | AID 1259309;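 active = z-score under -3 and OD600 up to 0.15 on both plates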;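 note: plate controls were untreated wells for no effect and antibiotic for full effect; wells of about 80 µL received 100 nL stock; the first replicate is given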
Mtb hypoxia inh: reduces hypoxia-regulated biosensor signal in M. tuberculosis. AID 1159583. hit rate 0.1% among 300,000. fluorescence inhibition, % (concentration not given with the values). M. tuberculosis hypoxia-regulated fluorescent reporter, fluorescence;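 active = 35 to 45% if threefold the growth effect, above 45% if 1.5-fold the growth effect; inactive = the rest, general growth blockers included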;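 note: wells of about 50 µL received 100 nL stock; 0% = vehicle wells and 100% = reference inhibitor wells; whole bacteria with a GFP reporter of the hypoxia response; strong numbers were not always called active; many hits fall short of the cut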
PrP 5UTR inh: suppresses PrP 5' UTR mRNA reporter expression. cell-based PrP 5' UTR mRNA reporter, plate reader. inhibition, % (no concentration beside the values). hit rate 0.35% among 340,000. AID 488862;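 active = every replicate at 50% or more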;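 note: 0 = median of the neutral control wells; tested in H4 reporter cells; numbers are from one replicate; inactives centre near -14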
RN4220 kill: S. aureus RN4220 growth inhibition; OD600, 16 h; inhibition, % (no concentration beside the values); hit rate 0.33% among 330,000; AID 1259311;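 active = z-score of -3 or lower and OD600 up to 0.18 on both plates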;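 note: plate controls were untreated cells for no effect and reference antibiotic for full effect; stock transfer was 100 nL into about 80 µL; one replicate is shown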
Bead autofluor: compound fluorescence in toxin protease inhibitor counterscreen; fluorescence intensity (test concentration not listed); AID 624483; hit rate 3.1% among 360,000; compound autofluorescence counterscreen, microsphere flow cytometry; hits give high values;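 active = at least 3 SD above the mean of all compounds, about 16000 in these data; inconclusive = too few beads counted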;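 note: 100 nL of 1 mM stock went into each well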
BJeLR viability: kills HRASV12-expressing BJeLR cells | BJeLR (HRASV12) viability, CellTiter-Glo ATP luminescence, 48 h; reference of the scale not given here | inhibition, % (concentration not given with the values) | hit rate 0.17% among 300,000 | AID 1554;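 active = replicate mean above 50%; inconclusive = above 50% but judged a plate artefact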;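 note: 50 nL library stock added to about 25 µL; numbers are from one replicate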
Mtb hypoxia inh growth: recorded beside Mtb hypoxia inh, whose call it bears; growth inhibition, %; measured here: M. tuberculosis growth (absorbance);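 0% = vehicle and 100% = reference antibiotic; read after six days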
Numbers without * were called inactive; ? = inconclusive; / = no result given; & = joins results of further samples. Outcome played no part in choosing rows; any-hit rate near 4.1%.

mol | Sa ugtP lethal | Mtb hypoxia inh | Mtb hypoxia inh growth | PrP 5UTR inh | RN4220 kill | Bead autofluor | BJeLR viability
COc1ccc(Br)cc1/C=N/NC(=O)c1ccco1 | / | / | / | -28 | / | 4705 | 2
O=c1c2ccccc2nc(/C=C/c2c[nH]c3ccccc23)n1-c1ccc([N+](=O)[O-])cc1 | / | / | / | -17 | / | 1893 | 7
O=[N+]([O-])c1ccc(/C=N/Nc2nc(N3CCCCC3)nc(N3CCCCC3)n2)o1 | / | / | / | -21 | / | 21202* | -2
O=[N+]([O-])c1ccc(SCCc2ccncc2)cc1 | 8&7 | -9&9 | -2&5 | -8 | 3.4&6.6 | 4124 | -5&-6
Cc1ccccc1NC(=O)C(=O)NNC(=O)COc1ccc2ccccc2c1 | / | / | / | -33 | / | 6071 | -1
CN(C(=O)CSc1nnc(NC2CCCCC2)s1)C1CCS(=O)(=O)C1 (configuration not stated) | 1 | 6 | 8 | -6 | 3.3 | 5026 | 1
Cc1cc(C)cc(N(C(C)C(=O)NC2CCCC2)S(C)(=O)=O)c1 (configuration not stated) | 7 | 7 | 3 | -7 | 4.5 | 16068 | 0
CC1(C)CC2CC(C)(CN2C(=O)COC(=O)c2ccc(Cl)c(N)c2)C1 (configuration not stated) | -1 | 6 | 0 | -15 | 1.3 | 10739 | -4
CCC(=O)c1c[nH]c(C(=O)NCCCn2ccnc2)c1 | 1 | / | / | -47 | -1.0 | 2984 | 0
CCN(CCCNC(=O)CNC(=O)Cn1cnc2ccccc2c1=O)c1cccc(C)c1 | -2 | / | / | -5 | 1.3 | 2650 | 9
CCOc1cc(C=NNC(=O)CSc2nncn2C)ccc1OCc1ccccc1 | 13 | 3 | 7 | / | 4.7 | / | /
O=C(CSc1ncc(-c2ccc(F)cc2)n1Cc1ccco1)Nc1nccs1 | 0 | 6 | 5 | -19 | 4.2 | 3776 | 5
Cc1cc(Cl)cc(C)c1OCCCCN1CCOCC1 | 1 | 13 | 10 | -1 | 3.6 | 15933 | 2
CCN(CC)CCCNC(=O)c1cc(-c2ccc(Cl)c(Cl)c2)on1 | 3 | 8 | 6 | -15 | -4.3 | 11280 | 17
COc1cccc(C=NNC(=O)CCc2ccccc2)c1 | -1 | 7 | 6 | / | 1.3 | / | /
O=C(c1cc2cc([N+](=O)[O-])ccc2s1)N1CCCCC1 | 5 | 13 | 5 | -18 | 3.6 | 4387 | -3
CCOc1ccc(C(=O)OCC(=O)Nc2cccc(S(=O)(=O)N3CCCC3)c2)cc1 | 20 | -5 | 0 | -11 | 1.9 | 3549 | /
CCN(CC)c1ccc(NC(=O)CN2CCN(c3ccc(F)cc3)CC2)cc1 | -2 | -16 | 6 | -12 | 4.3 | 9055 | 5
CC(C)OC(=O)CSc1ncnc2c1cnn2-c1ccccc1 | 19 | -1 | 0 | -20 | 4.0 | 7395 | -13
Fc1ccc(C2=CC(c3ccco3)n3ncnc3N2)cc1 (configuration not stated) | 0 | 8 | 1 | -10 | 5.0 | 2244 | -3
CC(=O)Nc1ccc2c(c1)CCCC2 | -2 | -2 | 11 | -8 | 4.3 | 6077 | 5
Cc1ccc(S(=O)(=O)N2c3ccccc3OCC2c2ccccc2)cc1 (configuration not stated) | 78 | 16 | 12 | -14 | 0.3 | 4424 | 1
CC(=O)Nc1cccc(OCC(=O)NCCC2=CCCCC2)c1 | -10 | -6 | 4 | -19 | -1.9 | 3891 | -9
Cn1cc(Cl)cc(C(=O)Nc2ccccc2)c1=O | 9 | 20 | 6 | -25 | 6.6 | 4051 | 11

Just PrP 5UTR inh, RN4220 kill and Mtb hypoxia inh, for two of the compounds above:
canonical_smiles,PrP 5UTR inh,RN4220 kill,Mtb hypoxia inh
CCC(=O)c1c[nH]c(C(=O)NCCCn2ccnc2)c1,-47,-1.0,/
CCN(CC)CCCNC(=O)c1cc(-c2ccc(Cl)c(Cl)c2)on1,-15,-4.3,8

Remaining list, next part.
structure | Sa ugtP lethal | Mtb hypoxia inh | Mtb hypoxia inh growth | PrP 5UTR inh | RN4220 kill | Bead autofluor | BJeLR viability
O=C1NC(Cc2ccccc2)C(=O)N2C1C[C@]1([C@]34CC5C(=O)NC(Cc6ccccc6)C(=O)N5C3Nc3ccccc34)c3ccccc3NC21 (some centres not stated) | -8 | 9 | 7 | / | -0.7 | / | /
COC(=O)c1ccc(C(=O)OC)c(NC(=S)N2CCN(C)CC2)c1 | 4 | -6 | -7 | -22 | 5.8 | 3978 | 8
Cc1nc(C)c(NC(=O)OC(C)C)cc1NC(=O)OC(C)C | 3 | -1 | 9 | 3 | -0.1 | 1968 | -7
N#Cc1c(N)n[nH]c1-c1cc2c([nH]1)CCCC2 | 2 | 19 | 3 | -24 | 5.1 | ? | 3
COc1cc(CC(=O)OCC(=O)N2CCCCC2C)cc(OC)c1OC (configuration not stated) | 6 | -1 | 2 | -12 | 1.6 | 3552 | -23
O=C(Nc1nc2ccc([N+](=O)[O-])cc2s1)c1ccncc1 | 11 | 0 | 2 | -38 | 2.2 | / | 13
Cc1ccc(NC(=O)N/C=C/c2ccco2)cc1C | -7 | 7 | 13 | -27 | 2.4 | 21513* | -4
CCCCNCc1ccc(SC)cc1 | 7 | 9 | -6 | -11 | 2.2 | 5480 | 1
CCN(CC)C(=O)CC(c1ccc(OC)cc1)c1c(OC)cc(OC)c2ccc(=O)oc12 (configuration not stated) | -10 | 0 | 9 | -8 | -4.2 | 3624 | -4
CCN(CC(=O)NCc1ccccn1)S(=O)(=O)c1ccc(OC)cc1 | 11 | 2 | 3 | -11 | 0.7 | 6450 | 16

Grouped by structure, the entries above with sulfur.
structure | Sa ugtP lethal | Mtb hypoxia inh | Mtb hypoxia inh growth | PrP 5UTR inh | RN4220 kill | Bead autofluor | BJeLR viability
O=[N+]([O-])c1ccc(SCCc2ccncc2)cc1 | 8&7 | -9&9 | -2&5 | -8 | 3.4&6.6 | 4124 | -5&-6
CN(C(=O)CSc1nnc(NC2CCCCC2)s1)C1CCS(=O)(=O)C1 (configuration not stated) | 1 | 6 | 8 | -6 | 3.3 | 5026 | 1
Cc1cc(C)cc(N(C(C)C(=O)NC2CCCC2)S(C)(=O)=O)c1 (configuration not stated) | 7 | 7 | 3 | -7 | 4.5 | 16068 | 0
CCOc1cc(C=NNC(=O)CSc2nncn2C)ccc1OCc1ccccc1 | 13 | 3 | 7 | / | 4.7 | / | /
O=C(CSc1ncc(-c2ccc(F)cc2)n1Cc1ccco1)Nc1nccs1 | 0 | 6 | 5 | -19 | 4.2 | 3776 | 5
O=C(c1cc2cc([N+](=O)[O-])ccc2s1)N1CCCCC1 | 5 | 13 | 5 | -18 | 3.6 | 4387 | -3
CCOc1ccc(C(=O)OCC(=O)Nc2cccc(S(=O)(=O)N3CCCC3)c2)cc1 | 20 | -5 | 0 | -11 | 1.9 | 3549 | /
CC(C)OC(=O)CSc1ncnc2c1cnn2-c1ccccc1 | 19 | -1 | 0 | -20 | 4.0 | 7395 | -13
Cc1ccc(S(=O)(=O)N2c3ccccc3OCC2c2ccccc2)cc1 (configuration not stated) | 78 | 16 | 12 | -14 | 0.3 | 4424 | 1
COC(=O)c1ccc(C(=O)OC)c(NC(=S)N2CCN(C)CC2)c1 | 4 | -6 | -7 | -22 | 5.8 | 3978 | 8
O=C(Nc1nc2ccc([N+](=O)[O-])cc2s1)c1ccncc1 | 11 | 0 | 2 | -38 | 2.2 | / | 13
CCCCNCc1ccc(SC)cc1 | 7 | 9 | -6 | -11 | 2.2 | 5480 | 1
CCN(CC(=O)NCc1ccccn1)S(=O)(=O)c1ccc(OC)cc1 | 11 | 2 | 3 | -11 | 0.7 | 6450 | 16
